# GIRK2 activ – activators of human GIRK2 potassium channels. P48051. HEK293-GIRK2 thallium flux, Thallos fluorescence. calls only for hits at 25 µM. 0.05% of 63,000 active. AID 1259325;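 active = among the strongest 0.2% of first-round signals and kept after retests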;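 also: first round at about 10 µM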
# Target sequence (P48051 whole entry, looked up): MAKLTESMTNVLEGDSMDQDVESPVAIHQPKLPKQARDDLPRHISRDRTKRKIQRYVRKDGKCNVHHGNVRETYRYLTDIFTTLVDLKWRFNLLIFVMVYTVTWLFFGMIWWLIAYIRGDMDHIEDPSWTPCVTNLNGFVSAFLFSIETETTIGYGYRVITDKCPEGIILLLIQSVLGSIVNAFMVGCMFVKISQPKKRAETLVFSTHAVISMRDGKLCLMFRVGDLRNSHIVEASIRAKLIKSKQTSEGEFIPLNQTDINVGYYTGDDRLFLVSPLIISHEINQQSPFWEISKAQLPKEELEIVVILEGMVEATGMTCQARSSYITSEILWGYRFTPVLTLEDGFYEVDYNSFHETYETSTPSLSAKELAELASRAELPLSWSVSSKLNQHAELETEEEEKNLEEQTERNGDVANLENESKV
# Calls only; i = inactive. The list is partial, so the mix of outcomes need not match the whole.
structure	GIRK2 activ
COc1ccc(-c2ccc(C(=O)Nc3ccc([N+](=O)[O-])cc3C)o2)c([N+](=O)[O-])c1	i
CCCCCCCCCCCCCCCCOC[C@H](COP(=O)([O-])OCC[N+]1(C)CCCC1)OC(C)=O	i
O=C(NCCc1ccccc1)NCC1CCN(Cc2ccco2)CC1	i
COc1cccc(C(=O)NCC2CCN(C(=O)Oc3ccccc3)CC2)c1OC	i
O=c1oc2cc(OCC(O)CN3CCN(c4ccccc4F)CC3)ccc2c2c1CCC2 (configuration not stated)	i
COc1ccc(-n2nnc(C(=O)Nc3cccc(Cl)c3C)n2)cc1	i
COC(=O)c1ccc(NC(=O)CN2CC(c3nc(-c4cnccn4)no3)C2)cc1	i
O=C(Nc1sc2ccccc2c(=O)c1-c1ccccc1)c1cccs1	i

# Next part; it opens with the 5 that closed the last part.
structure	GIRK2 activ
COc1cccc(C(=O)NCC2CCN(C(=O)Oc3ccccc3)CC2)c1OC	i
O=c1oc2cc(OCC(O)CN3CCN(c4ccccc4F)CC3)ccc2c2c1CCC2 (configuration not stated)	i
COc1ccc(-n2nnc(C(=O)Nc3cccc(Cl)c3C)n2)cc1	i
COC(=O)c1ccc(NC(=O)CN2CC(c3nc(-c4cnccn4)no3)C2)cc1	i
O=C(Nc1sc2ccccc2c(=O)c1-c1ccccc1)c1cccs1	i
O=[N+]([O-])c1ccc2c(c1)C(c1ccccc1Cl)=Nc1c(n[nH]c1-c1cccnc1)N2	i
O=C(/C=C/c1ccccc1)N1CCN(c2ccc(-n3cccc3)nn2)CC1	i
Cc1cc(C)n(CC(=O)Nc2ccccc2)c(=O)c1S(=O)(=O)c1ccc(Br)cc1	i
COc1cc(NC(=O)CSc2nc3c(-c4ccc(C)cc4)csc3c(=O)n2C)cc(OC)c1	i
COc1ccc(CCNC(=O)Nc2ccc(Cl)c(N3CCCS3(=O)=O)c2)cc1	i
CC1=C(C(=O)Nc2ccc(C)c(C)c2)C(c2cccc(Br)c2)NC(=O)N1 (configuration not stated)	i
O=C(CSc1ccc(-c2nc(-c3ccccc3)no2)cn1)NCc1cccs1	i
COc1ccccc1CNC(=O)C1CCN(c2cc(Oc3ccccc3)ncn2)CC1	i
O=C(Nc1ccc(F)cc1)N1CCN(Cc2nc3ccccc3n2Cc2ccccc2)CC1	i
CC(C)(C)C(O)CCNC(=O)c1ccsc1 (configuration not stated)	i
CCCn1c(=O)c2ccc(C(=O)NC3CCCC3)cc2n2c(=O)n(Cc3cccc(C)c3)nc12	i
COc1cc(NC(=O)C2CCCC2)ccc1N1CCCCC1=O	i
CC(Cc1ccco1)NC(=O)C1c2ccccc2Oc2ccccc21 (configuration not stated)	i
CCOC(=O)C1CCN(C(=O)Cn2ccn3nc(-c4ccc(OCC)cc4)cc3c2=O)CC1	i
CCCCCc1cc(O)c(CC=C(C)C)c(O)c1CC=C(C)C	i
CCOc1ccccc1C(=O)NC1CC(=O)N(c2ccccc2)C1 (configuration not stated)	i
COc1ccc(OCC(=O)Nc2ccc(OC)c(N3CCCC3=O)c2)cc1	i
Cc1ccc(-n2ncc3c2ncn2nc(C4CCCO4)nc32)cc1Cl (configuration not stated)	i
Cn1nc2n(Cc3ccccc3)c(=O)c3ccc(C(=O)NC4CCCC4)cc3n2c1=O	i
Cc1ccc(NC(=O)Cc2cc(=O)[nH]c(SCc3ccccc3)n2)cc1Cl	i
COc1ccc(C(=O)C(C)OC(=O)c2cc3cc(Br)cc(OC)c3oc2=O)cc1 (configuration not stated)	i
COc1ccc(S(=O)(=O)N2CCCC2CNC(=O)C(=O)NCc2ccncc2)cc1 (configuration not stated)	i
COc1ccc2c(c1)c(CC(=O)Nc1cccnc1)c(C)n2C(=O)c1ccc(Cl)cc1	i
Cc1ccc(C)c(N2CCN(C(=O)c3csc(-n4cccc4)n3)CC2)c1	i
Nc1nc(N2CCCC2)ncc1[N+](=O)[O-]	i
COc1cc(C(=O)Nc2oc3ccccc3c(=O)c2-c2ccccc2)cc(OC)c1OC	i
NC(=O)c1nnn(-c2ccc(NC(=O)c3cc4ccccc4o3)cc2)n1	i
CCOC(=O)Cn1c(C)c(C)n2c3c(=O)n(CC)c(=O)n(C)c3nc12	i
O=C(Nc1ccc(-n2nnn(CC(=O)N3CCOCC3)c2=O)cc1)c1c(F)cccc1F	i
O=C(NCCCOc1cccc2cccnc12)c1cccnc1	i
Cc1ccc(S(=O)(=O)N2CCN(c3c(C)cccc3C)CC2)cc1C	i
O=c1c(-c2ccc(Cl)cc2)coc2cc(O)ccc12	i
CCc1cccc(NC(=O)Cn2nc3ccc(C(=O)Nc4ccc(C)cc4)cn3c2=O)c1	i
Cc1nc(-c2cccs2)sc1CNC(=O)NC(C)C	i
C=CCOCC(O)Cn1c(NCc2cccnc2)nc2c1c(=O)[nH]c(=O)n2C (configuration not stated)	i
Cc1noc(C2CN(Cc3ccc(Br)o3)C2)n1	i
CCCn1nc(-c2cccs2)c2sc(N3CCCC3)nc2c1=O	i
CCOC(=O)c1c(NC(=O)c2ccc(S(=O)(=O)N3CCOCC3)cc2)sc2c1CCC2	i
Cc1ccccc1C(=O)NNC(=O)c1cc2cc(Cl)ccc2oc1=O	i
O=C(Cn1cnc(-c2ccccc2)cc1=O)Nc1ccccc1-c1ccc(=O)[nH]n1	i

# The list goes on.
SMILES,GIRK2 activ
COc1ccc(NC(=O)COc2coc(CSc3nncn3C)cc2=O)c(OC)c1,i
O=S(=O)(c1ccccc1F)N1CC(Oc2nc3ccccc3s2)C1,i
O=C(CSc1ncc(S(=O)(=O)c2cccc(C(F)(F)F)c2)c(=O)[nH]1)Nc1ccc(F)cc1,i
O=C(CSc1ccc2ccccc2n1)N1CCC(c2noc3ccc(F)cc23)CC1,i
CN(C)CCCN1C(=O)C(=O)C(=C(O)c2ccc3c(c2)OCCO3)C1c1ccccc1 (configuration not stated),i
COc1ccc(CC(C)(O)CNS(=O)(=O)c2ccc3c(c2)CCCC3)cc1 (configuration not stated),i
COc1ccccc1-c1c(C)oc2cc(OC(=O)c3ccc4c(c3)OCO4)ccc2c1=O,i
CCOc1ccccc1/C=C1\Oc2cc(OC(C)C(=O)OC)ccc2C1=O (configuration not stated),i
Cc1nc(OCC(=O)Nc2ccc(S(N)(=O)=O)cc2)cc(-n2cccn2)n1,i
O=C(CSc1ncnc2scc(-c3ccccc3)c12)N1CCCCCC1,i
O=C(Nc1nc2c(s1)CN(S(=O)(=O)/C=C/c1ccccc1)CC2)c1ccco1,i
CCOc1ccc(C(=O)Nc2cc3c4c(c2)CCC(=O)N4CCC3)cc1,i
O=C(Nc1nc2c(s1)CN(C(=O)Cn1c(=O)oc3ccccc31)CC2)c1ccco1,i
CS(=O)(=O)N1CCN(C(=O)C2CCCN(c3ccc(-n4cccn4)nn3)C2)CC1 (configuration not stated),i
COc1ccc(-c2csc3c(=O)n(Cc4cccc(Cl)c4)cnc23)cc1,i
Cc1cc(C(=O)Nc2ccc(-n3nnn(CC(=O)N4CCOCC4)c3=O)cc2)c(C)o1,i
CN1CCc2c(sc(NC(=O)CCCSc3ccc(F)cc3)c2-c2nc3ccccc3s2)C1,i
O=C(NCCc1ccccc1)N1CCC(Cn2ccnc2)CC1,i
COc1cccc(NC(=O)CSc2ccc3ccccc3n2)c1,i
Cc1noc(-c2ccc(NC(=O)Nc3ccccc3)cc2)n1,i
O=C(NC1CCS(=O)(=O)C1)c1ccc(COc2ccccc2)o1 (configuration not stated),i
Cc1ccc(C)c(NC(=O)CC2Sc3ccc(C(F)(F)F)cc3NC2=O)c1 (configuration not stated),i
COc1nn(C)cc1C(=O)Nc1ccc(C(=O)NN2CCN(C)CC2)cc1,i
O=C(/C=C/c1ccco1)Nc1ccc2c(c1)CN(C(=O)c1cccs1)CC2,i
O=c1cc(-c2ccc(F)cc2)ncn1CCNS(=O)(=O)C1CC1,i
COc1ccc2c(c1)C(CC(=O)O)C(C)N2C(=O)c1ccc(Cl)cc1 (configuration not stated),i
COc1ccc(NC(=O)Cn2ncn3nc(-c4ccccc4)cc3c2=O)cc1Cl,i
O=C1/C(=C/c2cccnc2)SC(=S)N1c1ccc(O)cc1,i
O=C(/C=C/c1ccccc1Cl)N1CC(c2nc3ccccc3[nH]2)C1,i
CC1(C)Cc2cccc(OCC(=O)N3CC(c4nc5ccccc5[nH]4)C3)c2O1,i
C=Cc1ccc(Cn2nc3ccc(-c4ccccc4)nn3c2=O)cc1,i
COC(=O)Cn1c(=O)c2c(nc3n(-c4cccc(C)c4C)c(C)cn23)n(C)c1=O,i
CC(Cc1cccs1)NC(=O)C1CC1 (configuration not stated),i
CCCc1cnc2c(c1SCC(=O)N1CCCCCC1)c(=O)n(C)c(=O)n2C,i
CC(NC(=O)C(=O)NCC1(c2ccc(F)cc2)CC1)c1ccccc1 (configuration not stated),i
CCOc1ccc(C(=O)Nc2ccc(-n3c(C)nc4ncccc4c3=O)cc2C)cc1,i
O=C(C1CCN(c2ccc(-c3ccco3)nn2)CC1)N(Cc1ccccc1)c1ccccc1,i
COc1cc(NC(=O)CN(C)c2nc3ccccc3s2)cc(OC)c1OC,i
CC1CCN(c2nc3c(c(=O)[nH]c(=O)n3C)n2CC(O)COc2ccc([N+](=O)[O-])cc2)CC1 (configuration not stated),i
Cn1cc(C(=O)N2CCN(c3ncccn3)CC2)nn1,i
O=C(C1c2ccccc2Oc2ccccc21)N1CCCC(c2nnc(C(F)(F)F)o2)C1 (configuration not stated),i
COc1cc(/C=C/c2ccncc2)ccc1OC(=O)c1ccco1,i
COc1cc(COCC2CCN(C(=O)Nc3c(F)cccc3F)CC2)cc(OC)c1,i
COc1ccc(C)cc1-n1c(C)c(C)n2c3c(=O)n(CC(C)=O)c(=O)n(C)c3nc12,i
Cc1ccc(N2C(=O)CC(Nc3ccc(F)cc3)C2=O)c(Br)c1 (configuration not stated),i
Cn1cc(OCc2ccc(F)cc2)c(=O)cc1C(=O)Nc1nc2ccccc2s1,i
Cc1cn2c3c(=O)n(CCc4ccccc4)c(=O)n(C)c3nc2n1CCCn1ccnc1,i
O=C(NCc1nc2ccccc2[nH]1)c1cnn2c1OCCC2,i
Cn1cc(C(=O)NCc2ccccc2F)c(S(=O)(=O)N2CCN(c3ccccc3Cl)CC2)n1,i
Cc1nc(C)c(-c2ccc(=O)n(CCNC(=O)CSc3nnnn3C)n2)s1,i

# Next part.
SMILES,GIRK2 activ
COc1ccc(/C=C2\Oc3cc(OCC(=O)OCc4ccccc4)ccc3C2=O)c(OC)c1OC,i
O=C1NC(O)C(c2c[nH]c3ccccc23)=C1c1c[nH]c2ccccc12 (configuration not stated),i
O=C(NCCCn1ccnc1-c1ccccc1)c1ccc(Br)o1,i
COCCN(Cc1ccoc1)C(=O)C1COc2ccccc2O1 (configuration not stated),i
O=C(CCCSc1ccc(NC(=O)c2ccco2)nn1)NCC1CCCO1 (configuration not stated),i
Cc1cc(NC(=O)C2CCN(C(=O)c3cc(C4CC4)on3)CC2)no1,i
CC(C)c1ccc2c(N=Nc3ccc(S(N)(=O)=O)cc3)c(O)[nH]c2c1,i
COc1ccc2nc(-n3nc(C)cc3NC(=O)CN3C(=O)c4ccccc4C3=O)sc2c1,i
CC(=O)OCC[N+](C)(C)C,i
COc1ccc2cccc(NC(=O)c3csc(C)n3)c2n1,i
O=C(Nc1ccc(-n2nnc(C(=O)NC3CC3)n2)cc1)c1ccsc1,i
CC(Cc1ccco1)NC(=O)C(=O)Nc1cc(Cl)ccc1C#N (configuration not stated),i
Cc1c(C(=O)N2CCC(C(N)=O)CC2)nnn1-c1nc(-c2ccccc2)cs1,i
O=C1CCSCC(C(=O)N2CCN(c3ccc(F)cc3)CC2)N1 (configuration not stated),i
O=c1cc(CN2CCN(c3cccc(Cl)c3)CC2)c2cc(O)ccc2o1,i
Cc1ccc2nc(N(CCCn3ccnc3)C(=O)c3cccs3)sc2c1,i
Cc1cc(C(O)CCNS(=O)(=O)c2ccc3c(c2)OCCO3)c(C)o1 (configuration not stated),i
COc1ccc(-c2c(C)oc3cc(OCC=C(C)C)ccc3c2=O)cc1,i
COc1cccc(NC(=O)CSc2ncc(S(=O)(=O)c3cccc(C(F)(F)F)c3)c(=O)[nH]2)c1,i
O=S(=O)(Nc1ccc2c(c1)N(S(=O)(=O)c1ccccc1)CCC2)c1ccccc1,i
COc1ccc(Br)c(C(=O)NCC(C)(O)c2ccc(-c3ccccc3)cc2)c1 (configuration not stated),i
O=C(Nc1cccc(-n2cnnn2)c1)c1cc2ccccc2c(=O)s1,i
COc1ccc(-n2nc(-c3nc(-c4ccc5c(c4)OCO5)no3)c3ccccc3c2=O)cc1,i
COc1cc(-c2noc(C3CCN(S(=O)(=O)c4cccs4)CC3)n2)ccc1OC(C)C,i
COc1ccc(-c2noc(-c3nn(-c4ccc(C)cc4)ccc3=O)n2)cc1OC,i
COc1cccc(-n2nc(C)c3c(N/N=C(/C)c4ccncc4)ncnc32)c1,i
O=C(CCCn1cccc1)Nc1ccc2c(c1)OCCO2,i
Cc1ccc(CNC(=O)c2ccc(-n3ccnc3SCC(=O)Nc3ccc(F)cc3Cl)cc2)o1,i
Cn1cc(C(=O)N2CCN(c3ccc(-c4noc(C5CC5)n4)cn3)CC2)nn1,i
Cc1ccccc1NC(=O)C(=O)NCCc1ccc2c(c1)CCCN2C,i

# An excerpt of these results, with values ahead of the structure:
GIRK2 activ | smiles
i | COc1cccc(-n2nc(C)c3c(N/N=C(/C)c4ccncc4)ncnc32)c1
i | O=C(Nc1cccc(-n2cnnn2)c1)c1cc2ccccc2c(=O)s1
i | COc1ccc(-c2noc(-c3nn(-c4ccc(C)cc4)ccc3=O)n2)cc1OC
i | COc1ccc(Br)c(C(=O)NCC(C)(O)c2ccc(-c3ccccc3)cc2)c1 (configuration not stated)
i | COc1ccc(-n2nc(-c3nc(-c4ccc5c(c4)OCO5)no3)c3ccccc3c2=O)cc1
i | Cc1ccccc1NC(=O)C(=O)NCCc1ccc2c(c1)CCCN2C

# Of the compounds above, these have a nitro group on carbon:
SMILES,GIRK2 activ
COc1ccc(-c2ccc(C(=O)Nc3ccc([N+](=O)[O-])cc3C)o2)c([N+](=O)[O-])c1,i
O=[N+]([O-])c1ccc2c(c1)C(c1ccccc1Cl)=Nc1c(n[nH]c1-c1cccnc1)N2,i
Nc1nc(N2CCCC2)ncc1[N+](=O)[O-],i
CC1CCN(c2nc3c(c(=O)[nH]c(=O)n3C)n2CC(O)COc2ccc([N+](=O)[O-])cc2)CC1 (configuration not stated),i
